Sa ugtP lethal = growth inhibition of S. aureus ugtP deletion strain; S. aureus RN4220 ugtP deletion, OD600 growth, 16 h; some inactives read as strong as hits; growth inhibition, % (concentration not given with the values); 0.54% of 330,000 active; AID 1259309;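 active = z-score under -3 and OD600 up to 0.15 on both plates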;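 also: plate controls were untreated wells for no effect and antibiotic for full effect; wells of about 80 µL received 100 nL stock; the first replicate is given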
Mtb hypoxia rep = reduces hypoxia-regulated biosensor signal in M. tuberculosis; M. tuberculosis hypoxia-regulated fluorescent reporter, fluorescence; fluorescence inhibition, % (concentration not given with the values); AID 1159583; 0.1% of 300,000 active;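 active = 35 to 45% if threefold the growth effect, above 45% if 1.5-fold the growth effect; inactive = the rest, general growth blockers included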;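 also: wells of about 50 µL received 100 nL stock; 0% = vehicle wells and 100% = reference inhibitor wells; whole bacteria with a GFP reporter of the hypoxia response; strong numbers were not always called active; many hits fall short of the cut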
Bead autofluor = counter-screen for toxin protease inhibitors: compound fluorescence | compound autofluorescence counterscreen, microsphere flow cytometry; hits give high values | fluorescence intensity (test concentration not listed) | 3.1% of 360,000 active | AID 624483;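 active = at least 3 SD above the mean of all compounds, about 16000 in these data; inconclusive = too few beads counted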;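 also: 100 nL of 1 mM stock went into each well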
PrP 5UTR inh = suppresses PrP 5' UTR mRNA reporter expression; inhibition, % (concentration not given with the values); AID 488862; 0.35% of 340,000 active; cell-based PrP 5' UTR mRNA reporter, plate reader;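 active = every replicate at 50% or more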;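 also: 0 = median of the neutral control wells; tested in H4 reporter cells; numbers are from one replicate; inactives centre near -14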
BJeLR lethal = kills HRASV12-expressing BJeLR cells | 0.17% of 300,000 active | inhibition, % (no concentration beside the values) | AID 1554 | BJeLR (HRASV12) viability, CellTiter-Glo ATP luminescence, 48 h; reference of the scale not given here;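 active = replicate mean above 50%; inconclusive = above 50% but judged a plate artefact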;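 also: 50 nL library stock added to about 25 µL; numbers are from one replicate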
Sa RN4220 lethal = kills Staphylococcus aureus RN4220 | S. aureus RN4220 growth, OD600, 16 h | inhibition, % (no concentration beside the values) | 0.33% of 330,000 active;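 active = z-score of -3 or lower and OD600 up to 0.18 on both plates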;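 also: plate controls were untreated cells for no effect and reference antibiotic for full effect; stock transfer was 100 nL into about 80 µL; one replicate is shown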
Mtb hypoxia rep growth = second read-out of Mtb hypoxia rep, no call of its own (marks repeat the call); growth inhibition, %; measured here: M. tuberculosis growth (absorbance);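 0% = vehicle and 100% = reference antibiotic; read after six days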
* hit, by the source's call; u = inconclusive; x = not tested or not shown; & = joins results of further samples. Rows were taken by chance; overall some 3.9% were active at least once.

SMILES	Sa ugtP lethal	Mtb hypoxia rep	Mtb hypoxia rep growth	Bead autofluor	PrP 5UTR inh	BJeLR lethal	Sa RN4220 lethal
COc1ccc(C(=O)COC(=O)CN2C(=O)C3C4C=CC(C5CC45)C3C2=O)cc1 (configuration not stated)	4	9	1	2265	-27	6	2.8
C#Cc1ccc(C2C=C(C(=O)N3CCOCC3)OC(OCc3ccc(CO)cc3)C2)cc1 (configuration not stated)	3&4	14&-5	16&5	x	x	x	8.1&4.7
CCNC(=S)NNC(=O)c1cccn(Cc2ccc(Cl)cc2)c1=O	x	x	x	22835*	-13	-4	x
O=C(c1nc2ccccn2c1CNCCCn1nnc2ccccc21)N1CCOCC1	2	2	-2	2533	-17	-12	4.1
C/C(CC(=O)NC1CCCCCC1)=N\NC(=O)c1cnccn1	x	x	x	2045	-7	-17	x
COc1ccccc1OCCCn1c(=O)sc2ccccc21	-7	6	9	20682*	-37	-1	17
C[C@]12CCC3C(CC[C@H]4C[C@H](O)CC[C@]34C)C1C[C@@H](O)[C@@H]2O (some centres not stated)	0	5	5	3755	-21	x	1.6
O=C(NNS(=O)(=O)c1ccccc1)c1sccc1-n1cccc1	1	5	5	4054	-17	-9	5.2
Cc1cc(C(=O)NC2CCN(Cc3ccccc3)CC2)n[nH]1	-1	-1	7	6462	4	-2	0.8
COc1cc(C(=S)N2CCOCC2)ccc1OC(=O)c1ccccc1[N+](=O)[O-]	14	-8	-2	3963	-13	7	6.7
O=C(CCS(=O)(=O)c1ccc(Br)s1)NC1CCCCCC1	2	12	4	8888	-20	-4	0.9
CC(C)OC(=O)c1c(NC(=O)Cn2cnc([N+](=O)[O-])n2)sc2c1CCCC2	41	8	9	4126	-9	2	-8.9
Cc1ccc(CNC(=O)CC(C)S(=O)(=O)c2ccc3c(c2)NC(=O)C(C)S3)cc1 (configuration not stated)	8	-6	-3	5212	-11	0	-7.9
CC(=O)NC(c1cccs1)c1cc(F)c2cccnc2c1O (configuration not stated)	-6	19	9	3768	32	x	16
COc1ccc(C(CC(=O)c2ccccc2)CC(=O)c2ccccc2)cc1OC	9	8	0	4974	-30	-1	6.9
COc1ccc(Cl)cc1N(CC(=O)NC(C)(C)C)S(=O)(=O)c1ccc(C)c([N+](=O)[O-])c1	1	-16	10	2277	-16	10	0.5
COc1cc(C2c3cc4c(cc3C(OC)C3COC(=O)C23)OCO4)cc(OC)c1O (configuration not stated)	-6	6	7	x	x	x	0.2
Cc1cccc2c1cnn2C(=O)Nc1cc(F)ccc1F	5	11	2	3907	-63	-4	3.3
COc1ccc(CCNC(=O)CSc2nc(=O)n3cccc(C)c3n2)cc1OC	1	0	7	u	8	6	2.0
COc1cc(OC)cc(C(=O)NC(=S)Nc2nc(-c3cc4ccccc4o3)cs2)c1	-6	-7	-4	4774	-14	5	-15

The closing 5 entries of the section before come first, to join the parts:
SMILES	Sa ugtP lethal	Mtb hypoxia rep	Mtb hypoxia rep growth	Bead autofluor	PrP 5UTR inh	BJeLR lethal	Sa RN4220 lethal
COc1ccc(Cl)cc1N(CC(=O)NC(C)(C)C)S(=O)(=O)c1ccc(C)c([N+](=O)[O-])c1	1	-16	10	2277	-16	10	0.5
COc1cc(C2c3cc4c(cc3C(OC)C3COC(=O)C23)OCO4)cc(OC)c1O (configuration not stated)	-6	6	7	x	x	x	0.2
Cc1cccc2c1cnn2C(=O)Nc1cc(F)ccc1F	5	11	2	3907	-63	-4	3.3
COc1ccc(CCNC(=O)CSc2nc(=O)n3cccc(C)c3n2)cc1OC	1	0	7	u	8	6	2.0
COc1cc(OC)cc(C(=O)NC(=S)Nc2nc(-c3cc4ccccc4o3)cs2)c1	-6	-7	-4	4774	-14	5	-15
O=C(c1ccc(F)cc1)c1cn(Cc2ccc(F)cc2)c2cc3c(cc2c1=O)OCCO3	-1	9	8	5586	-24	-4	5.2
O=C(CN(C(=O)c1csnn1)c1ccc(Br)cc1)NC1CCCCC1	14	2	0	3256	-5	2	1.9
O=C(Nc1ccc(N=Nc2ccccc2)cc1)c1ccccc1Cl	4	1	1	2445	-71	-16	-1.8
O=C(COC(=O)c1cc(S(=O)(=O)N2CCc3ccccc3C2)ccc1Cl)NCc1ccco1	9	x	x	3646	-8	-10	0.5
CCOc1ccc(S(=O)(=O)Nc2cccc(C(=O)NCC(c3ccc(OC)cc3)N3CCOCC3)c2)cc1 (configuration not stated)	12	12	0	5682	-26	-2	-1.8
Cc1c(/C=N/NC(=O)c2cccnc2)cc(C#N)n1C	x	x	x	4203	-10	4	x
Cc1nc(NC(C)(C)CO)c([N+](=O)[O-])cc1[N+](=O)[O-]	-1	4	1	2537	-17	0	8.8
Cc1ccc(NNC(=O)c2ccno2)c(C)c1	6	5	7	x	-11	5	2.9
COc1ccc(CNC(=O)N2CCN(c3ccccc3)CC2)cc1	0	14	2	5415	-5	7	0.2
CC1CCCC(C)N1C(=O)COc1ccc(C(=O)Nc2ccccc2N2CCOCC2)cc1 (configuration not stated)	5	13	9	4474	-5	1	3.6
O=C(COC(=O)c1ccc(NS(=O)(=O)c2ccc(F)c(F)c2)cc1)NCC1CCCO1 (configuration not stated)	12	-3	1	4535	-19	0	6.6
CCOC(=O)c1cnc(-c2ccccc2)[nH]c1=O	-2	x	x	3660	-6	-5	16
Cc1ccc(NC(=O)c2ccc(-n3cncn3)c([N+](=O)[O-])c2)cc1F	-2	3	12	6481	-2	-3	-6.3
O=C(O)C1CCN(C(=O)CCN2C(=O)S/C(=C\c3ccccc3)C2=O)CC1	x	x	x	5680	-21	6	x
O=C(O)C(Cc1ccccc1)NC(=O)C(c1ccccc1)c1ccccc1 (configuration not stated)	2	-9	-5	3616	-16	7	1.3
c1ccc2c(c1)ccc1nnc(-c3ccc4c(c3)OCO4)n12	-4	-1	1	2936	-10	6	4.8
C/C(=N\NC(=O)CCCNc1ccccc1)c1ccncc1	x	x	x	1984	1	2	x
CC(=O)Nc1ccc(C(C)=NNC(=O)c2ccccc2Cl)cc1	5	15	4	x	x	x	4.0
COC(=O)CCN(Cc1cc(OC)ccc1OC)S(=O)(=O)c1ccccc1Br	-2	-3	3	3281	3	x	5.8
COc1ccc(C(CNC(=O)CNC(=O)c2cccc(C)c2)N2CCOCC2)cc1 (configuration not stated)	1	8	-3	8657	-4	x	4.0
COc1cccc(C2/C(=C(\O)c3ccc4c(c3)OCCO4)C(=O)C(=O)N2CCCn2ccnc2)c1 (configuration not stated)	5	8	4	5650	-16	14	3.4
COc1cc(-c2noc(C)c2/C=C/c2ccc(C(=O)O)cc2)cc(OC)c1OC	x	x	x	3886	-15	2	x
COc1ccc(NC(=O)c2ccccc2C(=O)N2CCCCC2)cc1	14	1	3	3234	-15	3	1.5
CCS(=O)(=O)N1CCC(C(=O)Oc2ccc(Br)cc2)CC1	3	7	-2	x	-9	0	5.3
C/C(CC(=O)NC(C)C)=N\NC(=O)C(c1ccccc1)c1ccccc1	x	x	x	2963	-8	0	x
O=C(N[C@@H]1C[C@H]2CC[C@@H]1C2)c1ccco1	1	x	x	3131	-10	-13	1.8
CCOC(=O)c1c(NC(=O)CCC(=O)N(CC)CC)sc2c1CC(C)(C)OC2	-11	5	-2	4587	-11	5	0.8
O=C1C2C(c3ccccc3)CC=CC2[C@H](c2ccc(C(F)(F)F)cc2)N1Cc1ccccc1 (some centres not stated)	x	x	x	3870	-20	4	x
Cc1c(C(Nc2ccccn2)c2ccc(Cl)cc2)c(=O)n(-c2ccccc2)n1C (configuration not stated)	1	9	8	8677	-11	-10	2.1
O=C(NC1CC1)C1CCN(S(=O)(=O)c2cc([N+](=O)[O-])ccc2Cl)CC1	-3	3	10	6534	x	x	4.4
COCCN(C(=O)C1CCCC1)c1c(N)n(Cc2ccccc2)c(=O)[nH]c1=O	5	2	5	3478	-15	4	8.5
COc1ccc(C(=O)N2CCc3cc(OC)c(OC)cc3C2c2ccc(OC)c(OC)c2)cc1 (configuration not stated)	3	-7	-5	3126	4	1	0.9
O=C(O)CCCC(=O)Nc1ccc(Cl)c(Cl)c1	-4	x	x	5106	-14	-1	-2.8
Cc1ccc(S(=O)(=O)CCSc2ccc(C(F)(F)F)cn2)cc1	6	7	-6	4179	x	-1	2.4
Cc1cc(C(=O)N2CCOCC2)c(C)o1	3	14	2	4174	-29	5	-2.8
CN(CCC#N)C(=O)COC(=O)c1ccc(Cl)c(S(N)(=O)=O)c1	-1	2	5	5756	-34	-4	4.0
CCOC(=O)c1cc(-c2cccs2)nc2onc(C)c12	1	x	x	4617	-6	-4	2.4
CCC(=O)Nc1nc(C)c(-c2csc(Nc3cccc(O)c3)n2)s1	-12	6	-3	3103	2	14	3.0
CN1CCN(c2ccc(-c3cccc(NC(=O)COc4ccc(Cl)cc4)c3)nn2)CC1	6	14	1	u	-145	-6	3.0
CC(=NO)c1c(O)cc(-c2ccccc2)n(-c2ccccc2)c1=O	-5	-7	5	x	x	x	2.0
O=[N+]([O-])c1ccc(NCc2ccncc2)cc1	1	9	4	3393	-16	0	3.8
CCCc1nc2ccccc2c(C(=O)OC(C)C(=O)NCc2ccc3c(c2)OCO3)c1CC (configuration not stated)	-5	2	7	2334	-15	-1	-6.5
Cc1cccc(C)c1OCCCn1ccnc1	2	6	-3	3907	-22	6	2.4
O=C(NCc1cccnc1)C1CCCN(S(=O)(=O)c2ccccc2)C1 (configuration not stated)	3	6	-2	5868	2	-8	2.4
COc1ccc(OC)c(C2Nc3c(Cl)ccc(C(=O)O)c3C3C=CCC32)c1 (configuration not stated)	-7	-5	6	4039	-17	0	-3.2
Cc1cc(C)cc(NC(=O)COC(=O)c2n[nH]c3ccccc23)c1	-9	-6	-5	4084	-16	4	-1.3
O=C1S/C(=C\c2ccc(N3CCOCC3)o2)C(=O)N1c1ccccc1	x	x	x	8244	-60	1	x
CCOC(=O)c1nc(N)c(=O)n(-c2ccc(C)cc2)n1	0	6	2	4780	-18	3	4.6
Cc1cc(=O)oc2cc(NC(=O)CCOc3ccccc3)ccc12	4	7	-11	3539	-32	-6	0.0
Cc1ccc(C(=O)N2CCN(S(=O)(=O)N3CCCCC3)CC2)cc1	3	-3	-4	x	-6	-4	3.2
COc1ccc(NC(=O)/C(C#N)=C/c2cc(C)n(-c3ccc(N4CCOCC4)c([N+](=O)[O-])c3)c2C)cc1	-5	11	-2	7955	-26	8	7.8
C/C(=N/NC(=O)CNC(=O)COc1cccc(C)c1)c1ccc(Cl)cc1	x	x	x	5758	-6	-7	x
O=C(CSC1=NCCS1)Nc1ccc(S(=O)(=O)NC2CCCCC2)cc1	-15	1	-10	8080	-8	-1	-4.9
CCOC(=O)c1cccc(NS(=O)(=O)c2ccc(NC(C)=O)cc2)c1	-5	-8	6	8968	-3	7	1.3
CSc1nncc(/C(C)=N\Nc2ccccc2C)n1	x	x	x	2998	-6	8	x
Cc1nccc(-c2cccc(N/N=C(\C#N)C(=O)c3ccccc3)c2)n1	x	x	x	5882	-19	1	x
CCn1cc(C(=O)N[C@H](C)c2ccccc2)c(=O)c2cc(F)c(N3CCN(C)CC3)cc21	-4	x	x	2798	-6	4	-2.2
CN[C@H](CC(=O)O)C(=O)O	x	x	x	6280	0	-17	x
CCN(C1CCCCC1)S(=O)(=O)c1ccc(-n2cnnn2)c(C)c1	1	0	3	5698	-7	-1	4.2
COc1ccc(Oc2c(-c3ccc(O)cc3O)n[nH]c2C)cc1	-13	6	11	4115	-13	-1	-0.2

More records.
SMILES	Sa ugtP lethal	Mtb hypoxia rep	Mtb hypoxia rep growth	Bead autofluor	PrP 5UTR inh	BJeLR lethal	Sa RN4220 lethal
O=C(NCC1COc2ccccc2O1)c1ccc(Cl)cc1 (configuration not stated)	5	17	6	6120	-55	-11	-1.6
Cc1cccc(OC(=O)c2cccnc2)c1	17	14	4	4358	-16	10	4.8
COc1ccc(C2CC(C)(c3ccc(OC)cc3OC)Nc3ccccc3N2)c(OC)c1 (configuration not stated)	-9	-1	0	3357	-13	1	-2.5
O=C(CC=NOCc1ccc(Cl)cc1Cl)Nc1ccccc1	-12	11	5	x	x	x	-0.3
CCOc1ccc(C(=O)COC(=O)CNC(=O)C2CCCCC2)cc1	2	5	-1	u	-14	x	1.2
O=C(NNC(=O)c1ccc(O)cc1O)c1ccc(Cl)cc1	8	x	x	2794	-23	-2	1.3

High-throughput results: PubChem BioAssay, several laboratories
